Vero viability = Vero cell cytotoxicity, dose response, cytotoxicity control for Vif-APOBEC3G degradation inhibitor project, Vero cells (AID 1117358); Vero viability, CellTiter-Glo ATP luminescence, 72 h; reference of the scale not given here; CC50 in µM for hits, for the others viability, % at the top dose, mostly 40 µM; 2,300 tested, 7% active;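 active = viability down to 80% or less at some dose; inactive = above 80% at all doses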
Numbers without * were called inactive; [ ] = dose if it differs, or a comment. A portion of the library; rates above refer to the full screens.

smiles | Vero viability
COC(=O)C1=C(CSc2nc3ccccc3o2)NC(=O)NC1c1cc(C)ccc1C (stereo unspecified) | 97%
O=C1OC(c2ccc(Br)cc2)=N/C1=C\N1CCCCC1 | 101%
CCCn1c(SCC(=O)c2cc(C)ccc2C)n[nH]c1=O | 96%
Cc1ccc(CN(C(=O)Cn2nnc3ccccc32)C(C(=O)NCc2ccco2)c2cccs2)cc1 (stereo unspecified) | >40µM*
COc1ccc(OC)c(NC(=O)NCc2ccc(F)cc2)c1 | 100%
CCN(CC)S(=O)(=O)c1cccc(NC(=O)/C=C/c2cccc([N+](=O)[O-])c2)c1 | 97%
Cc1noc(C)c1C(=O)N1CCc2ccccc2C1 | 93%
CSc1nc(N2CCOCC2)c2c(c1C#N)CC(C)(C)OC2 | 83%
c1ccc(Cn2nnnc2-c2ccco2)cc1 | 96%
O=S1(=O)CCC(N2CCOCC2)C1 (stereo unspecified) | 87%
COC(=O)CSc1nnc(CNC(=O)Cc2ccccc2)n1-c1ccccc1OC | 97%
Nc1cc(N)c(OCC(F)(F)F)cc1OCC(F)(F)F | 93%
Cc1nn(Cc2ccccc2)c(C)c1C(=O)OCC(=O)c1cc(C)n(C2CC2)c1C | 89%
Cc1cc(O)cc(O)c1C(=O)Cc1cnn(-c2ccccc2)c1 | 90%
O=C1CN(C(=O)CSc2nnc(C3CC3)n2-c2ccccc2)c2ccccc2N1 | 96%
O=C(O)c1ccc2c(c1)N(Cc1cccc(F)c1)C(=O)CS2 | 95%
N/C(=N\OC(=O)COc1ccc2ccccc2c1)c1ccccn1 | 91%
C/C(=C\C(=O)c1cccnc1)Nc1ccc(O)cc1 | 85%
O=C(c1ccco1)N1CCN=C1SCc1cccc(Cl)c1 | 93%
CC(C)Cn1c(CCC(=O)O)ccc1-c1cccs1 | 93%
O=C1c2sc3nc4n(c(=O)c3c2CCC1Br)CCCCC4 (stereo unspecified) | 94%[20 µM]
COc1ccccc1NC(=O)CN(Cc1ccco1)C(=O)c1cccs1 | 94%
CC(=O)Nc1ccc(S(=O)(=O)N2CCN(CCCOc3ccccc3Cl)CC2)cc1 | >40µM*
CCOC(=O)c1c(O)c2ccccc2n(-c2ccccc2)c1=O | 93%
CN(C)C(=O)c1cc(Cl)ccc1Sc1cc(Cl)ccc1Cl | 90%
COc1ccccc1N1C(=O)CC(Nc2ccc(N3CCOCC3)cc2)C1=O (stereo unspecified) | 97%
CC1CCc2cc(F)ccc2N1C(=O)CSc1nnc(-c2cccs2)n1C (stereo unspecified) | 103%
CCc1ccc(C(=O)Nc2ccc(S(=O)(=O)Nc3nc(C)cc(C)n3)cc2)o1 | 96%
CCCn1nc(NC(=O)c2cccs2)c2cc3ccccc3nc21 | 82%
Clc1ccc(CSc2snnc2-c2ccccc2)c(Cl)c1 | 101%
CCn1c(=O)cc(SCC(=O)NCc2ccc(C)o2)c2ccccc21 | 90%
O=c1oc(/C=C/c2ccccc2)nc2sc3c(c12)CCC3 | 90%
Cc1nnc(N2CCc3ccccc3C2)[nH]c1=O | 97%
N#CCSc1nc2sc3c(c2c(=O)n1C1CCCCC1)CCCC3 | 95%
COc1cnc(SCc2c(Cl)cccc2Cl)nc1Cl | 102%
Nc1cccc(-c2nc3ccc(N)cc3s2)c1 | 109%
CC12CCC(C(=O)NCCN3CCCCC3)(CC1=O)C2(C)C (stereo unspecified) | 117%
Cc1cccc(N2CCN(CC(=O)Nc3nccs3)CC2)c1C | 98%
COc1ccccc1N(CC(=O)NC(C)C)S(=O)(=O)c1cccs1 | 103%
CCc1ccc(CNc2ccc(O)cc2)cc1 | 89%
O=C(CSc1ncn[nH]1)Nc1nc(-c2ccccc2)ns1 | 81%
COC(=O)c1ccccc1NC(=O)C(C)Oc1ccccc1 (stereo unspecified) | 108%
O=C1CC(SC(=Nc2ccccc2)Nc2ccccc2)C(=O)N1c1ccc(Cl)cc1 (stereo unspecified) | 100%
COc1cc(/C=C(\C#N)c2nc3ccccc3[nH]2)c([N+](=O)[O-])cc1OCc1ccccc1 | 81%
CC1=CC(C)(C)Nc2ccc(OC(=O)CN3C(=O)c4cccc5cccc(c45)C3=O)cc21 | 97%
CCc1c(C)[nH]c(=S)c(C#N)c1C | 86%
Cc1cc(C(=O)N2CCN(C/C=C/c3ccccc3)CC2)cs1 | 99%
O=C1CC(Nc2ccc(N3CCOCC3)cc2)C(=O)N1c1cccc(C(F)(F)F)c1 (stereo unspecified) | 98%
COc1cccc(-c2cc(C(=O)Nc3cnn(Cc4ccccc4C)c3)no2)c1 | 97%
Oc1ccccc1-c1cc(C(F)(F)C(F)F)[nH]n1 | >40µM*
COc1ccc(-n2ncc3c(NCc4ccccn4)ncnc32)cc1 | 100%
COCCCN1CC23C=CC(O2)C(C(=O)O)C3C1=O (stereo unspecified) | 93%
CCOc1ccc(N2C(=O)c3ccccc3C2O)cc1 (stereo unspecified) | 101%
CCC(Sc1nc(N)c(NC(=O)c2ccc(OC)c(OC)c2)c(=O)[nH]1)C(=O)OC (stereo unspecified) | 97%
COc1ccc(CCNS(=O)(=O)c2ccc3c(c2)CCN3C(=O)CCC(=O)O)cc1OC | 98%
O=C1c2ccccc2S(=O)(=O)N1CC(O)COc1ccc(Br)cc1 (stereo unspecified) | 97%
O=C(N/N=C/c1ccc[nH]1)c1cccnc1 | 93%
CC(NC(=O)c1ccco1)C(=O)N1CCc2ccccc2C1 (stereo unspecified) | 100%
O=C(CN1CCN(S(=O)(=O)c2ccc(F)cc2)CC1)Nc1cc(C(F)(F)F)ccc1Cl | 96%
Cc1ccc(CC(NC(=O)c2ccccc2)C(=O)NC(C)C(=O)O)cc1 (stereo unspecified) | 94%

Next part:
smiles | Vero viability
Cc1cccc(-n2c(Cc3cc(=O)[nH]c(=O)[nH]3)nnc2SC(C)C)c1 | 98%
O=C(NC12CC3CC(CC(C3)C1)C2)c1ccc(S(=O)(=O)N2CCOCC2)cc1 | 94%
O=S(=O)(c1cccc(C(F)(F)F)c1)N1CCN(c2ccccc2)CC1 | 92%
Cc1ccc(Cn2ccc(NC(=O)c3cc(-c4cccc(Cl)c4)on3)n2)cc1 | 103%
Cc1ccn(C(=O)c2cc3ccccc3oc2=O)n1 | 118%
Clc1ccc(-c2nc3cnccn3c2Nc2ccc3c(c2)OCO3)cc1 | 97%
Cn1nc(C(F)(F)F)c2cc(C(=O)NC3CC3)sc21 | 97%
COC(=O)CSC1=C(C#N)C(c2ccccc2)CC(=O)N1 (stereo unspecified) | 84%
Cc1cccc(N2C(=O)CN=C2Nc2nc(C)cc(C)n2)c1 | 102%
O=C1CCCC2=C1C(c1ccsc1)CC(=O)N2c1ccccc1 (stereo unspecified) | 94%
CC1(C)Cc2cccc(OCC(O)CN3CCN(c4ccccn4)CC3)c2O1 (stereo unspecified) | 107%
O=C(Nc1cccc(OC(F)(F)F)c1)c1ccc(Br)o1 | 91%
O=C(Nc1c2c(nn1-c1ccc(F)cc1)CS(=O)C2)C12CC3CC(CC(C3)C1)C2 (stereo unspecified) | 108%
CC(Sc1nnnn1-c1ccccc1)C(=O)Nc1ccc(Cl)cn1 (stereo unspecified) | 100%
O=C(NCC1CCCO1)C1CCCN(Cc2cnn(-c3ccccc3)c2-n2cccc2)C1 (stereo unspecified) | 92%
O=c1[nH]nc(CNc2ccc(O)cc2)c2ccccc12 | 95%
CC(=O)Nc1ccc(N/C=C/C(=O)C(C)(C)C)cc1 | 105%
COc1cc(NC(=O)NCCN2CCN(c3ccc(Cl)cc3)CC2)ccc1C | >40µM*
C/C(CC1CC2=C(CC1(C)C)C(C)(C)CCC2)=N\NC(N)=S (stereo unspecified) | 85%
COC(=O)/C=c1\sc2n(c1=O)C(C)=CC(C)(C)N=2 | 117%
CCOC(=O)c1ccc2c(c1)C1C=CCC1C(C(=O)O)N2 (stereo unspecified) | 87%
O=C(COc1ccccc1Cl)NCCc1ccc2c(c1)OCCO2 | 101%
O=C(c1ccco1)N(Cc1ccc([N+](=O)[O-])cc1)c1ccc(Cl)cc1 | 88%
Cc1cc(C(=O)CSc2nnc(-c3ccco3)o2)c(C)n1Cc1ccco1 | 98%

Seven compounds already listed, arranged by formula weight, descending.
smiles | Vero viability
O=C(NCC1CCCO1)C1CCCN(Cc2cnn(-c3ccccc3)c2-n2cccc2)C1 (stereo unspecified) | 92%
Cc1cc(C(=O)CSc2nnc(-c3ccco3)o2)c(C)n1Cc1ccco1 | 98%
CC(Sc1nnnn1-c1ccccc1)C(=O)Nc1ccc(Cl)cn1 (stereo unspecified) | 100%
C/C(CC1CC2=C(CC1(C)C)C(C)(C)CCC2)=N\NC(N)=S (stereo unspecified) | 85%
CCOC(=O)c1ccc2c(c1)C1C=CCC1C(C(=O)O)N2 (stereo unspecified) | 87%
O=c1[nH]nc(CNc2ccc(O)cc2)c2ccccc12 | 95%
COC(=O)/C=c1\sc2n(c1=O)C(C)=CC(C)(C)N=2 | 117%

(next part)
smiles | Vero viability
CC(C)c1nnc(NC(=O)CCC(=O)NCc2ccco2)s1 | 92%
O=C(COC(=O)/C=C/c1ccco1)Nc1ncc(C(F)(F)F)cc1Cl | 92%
CCN(CC)C(=O)CCNS(=O)(=O)c1ccc(C)cc1 | 106%
CCCCn1c(SCC(=O)NCc2ccco2)nc2ccc(N3CCOCC3)cc2c1=O | 103%
Cc1nnc(NC(=O)c2ccc(C)c(S(=O)(=O)N3CCOCC3)c2)s1 | 89%
COc1cc(-c2n[nH]c(=O)o2)cc(OC)c1OC | >40µM*
CCOc1ccc(NC(=O)Cn2cncc2-c2ccc([N+](=O)[O-])cc2)cc1 | 107%
COc1ccc(NC(=O)C2CCCN(S(=O)(=O)c3cccnc3)C2)cc1 (stereo unspecified) | 102%
CCOc1ccc(C2NC(=O)C(C#N)=C(S)N2c2ccc(OC)cc2)cc1OC (stereo unspecified) | 99%
CCCn1[nH]cc(SC)c(=O)c1=O | 96%
O=c1c2cc(N3CCOCC3)ccc2[nH]c(=S)n1Cc1ccco1 | 106%
CCOC(=O)N1CCN(CC(=O)c2ccc3c(c2)CCN3C(C)=O)CC1 | 103%
COc1ccc(OCC(=O)O/N=C(\N)Cc2ccc(Cl)cc2)cc1 | 91%
NS(=O)(=O)c1ccc2c(c1)C1C=CCC1C(C1CC=CCC1)N2 (stereo unspecified) | 90%
CCCCN1C2=C(C(=O)CC(C)(C)C2)C(c2ccccc2)C2=C1c1ccccc1C2=O (stereo unspecified) | 96%
O=C(Nc1ccc2c(c1)oc1ccccc12)c1cccnc1 | 92%
Cn1nc(-c2ccc(Cl)cc2)c2cc(C(=O)N3CCN(C(=O)c4ccco4)CC3)sc21 | 96%
CCOC(=O)C(C(=O)OCC)C(CC(=O)C1CC1)c1ccccc1 (stereo unspecified) | 96%
CCC(Sc1nc2cc(OC)c(OC)cc2c(=O)n1Cc1ccco1)C(=O)NCCOC (stereo unspecified) | 95%
CN(C)CCCNC(NC(=O)c1cccs1)C(Cl)(Cl)Cl (stereo unspecified) | 91%
N=c1sccn1CC(=O)Nc1ccc2c(c1)CCC2 | >40µM*
CCN(CC)C(=O)c1sc(NC(=O)c2ccc(Br)o2)c(C(=O)OC)c1C | 91%
COc1ccc(-c2nc3oc4cc(OC)ccc4c(=O)c3c(=O)n2Cc2ccco2)cc1 | 107%
CCOC(=O)C(C)Sc1nnc2n1C(C)(C)Cc1ccccc1-2 (stereo unspecified) | 102%

Reformatted field by field: entries from further up
COc1ccccc1N1C(=O)CC(Nc2ccc(N3CCOCC3)cc2)C1=O (stereo unspecified)
  Vero viability = 97%

CC1CCc2cc(F)ccc2N1C(=O)CSc1nnc(-c2cccs2)n1C (stereo unspecified)
  Vero viability = 103%

Further structures.
smiles | Vero viability
COc1cc(Cl)c(C)cc1NC(=O)COc1cc(C)nc(C(C)C)n1 | 92%
COc1cc(NC(=O)c2cc3nc(C)cc(C)n3n2)c(OC)cc1Cl | 95%
Cn1c(Cn2c(=O)sc3ccccc32)nnc1SCC(=O)NCc1ccc(F)cc1 | >40µM*
COc1ccc(OCc2nnc3n2N=C(c2ccc(OC)cc2)CS3)cc1 | 109%
CC(=O)Nc1ccc(S(=O)(=O)Nc2nnc(C(C)C)s2)cc1 | 99%
CN(C)c1nc(N)nc(CSc2ncc(Cl)cc2Cl)n1 | 97%
COc1ccc(N2C(=O)C3CCCN3C2c2ccc(C)cc2)cc1 (stereo unspecified) | 98%
Clc1ccc(-n2ncc3c(NCc4ccccn4)ncnc32)cc1 | 92%
O=[N+]([O-])c1c(NCCO)cc(Sc2nc3ccccc3s2)c2nonc12 | >40µM*
CON(c1nc(N(C)C)nc(N(C)C)n1)S(=O)(=O)c1ccccc1Cl | 92%
CC(=O)O/N=C/c1c(N2CCOCC2)n(C)c2ccccc12 | >40µM*
CCCCOc1ccc(C(=O)OC(C)CN(C)C)cc1 (stereo unspecified) | 92%
Cc1nn(-c2ccccc2)cc1/C=N/O | 98%
CC(=O)N1CCN(c2ccc(NCc3ccc(C)s3)cc2)CC1 | 105%
Clc1ccc(-c2nnnn2-c2ccc(Cl)c(Cl)c2)cc1Cl | 96%
Cc1ccc(-n2nnnc2SCn2nnc3ccccc3c2=O)cc1 | 105%
O=C(c1ccccc1Cl)N(C(=O)c1ccccc1Cl)c1nccc(-c2cccs2)n1 | 96%
CCN(CC)C(=O)CSCC(=O)Nc1ccccc1 | 91%
CCN1CCc2c(C#N)c(NCc3ccccc3)nc(N(CC)CC)c2C1 | 98%
CCOC(=O)c1c(NC(=O)Cn2cc([N+](=O)[O-])cn2)sc2c1CCC2 | 98%
CCOc1ccc(-n2c(Cc3cc(=O)[nH]c(=O)[nH]3)nnc2SCC(=O)NC2CCCC2)cc1 | 98%
N#Cc1ccc(N2CCN(C(=O)c3cccc(F)c3)CC2)c(F)c1 | 99%
CC1S/C(=N/N=C/c2ccco2)NC1=O (stereo unspecified) | 103%
Cn1c2ccccc2c2c(C(=O)O)cn(C3CCCC3)c(=O)c21 | 91%
CCOc1ccc(NCC2CCOC(C)(C)C2)cc1 (stereo unspecified) | 96%
COC(=O)c1sccc1NC(=O)c1cc(-c2ccc(C)cc2C)nc2ccccc12 | 99%
CSc1oc(-c2ccco2)nc1S(=O)(=O)c1ccccc1 | 116%

Screening results from PubChem.
